# Screens as filed in PubChem BioAssay.
# StopGo reporter: lowers the luciferase signal of an FMDV 2A StopGo reporter. Potency, µM (top dose mostly 57.9 µM), inactives show top-dose signal change, negative = less light. 1.2% of 410,000 active. human cells with a luciferase reporter of 2A StopGo recoding; control for the full effect not named in the record. AID 1159524; active = well fitted falling curve with a large enough effect; inconclusive = small, poorly fitted or top-dose-only effect; inactive = no such curve, though single readings can be large or run the other way; tested in HEK293T cells; further: nearly all actives have a fitted effect of over 45% in size; luciferase light after 4 h
# Active calls of the source: *; ? = inconclusive; & = joins results of further samples; [ ] = remark or other dose. On the % scale 0 is the no-effect control and ±100 the full control effect; potency means the concentration at half of the fitted maximal effect. These rows are one share of the data. The share of hits here may be higher or lower than overall.
O=C(O)CN(CC(=O)O)CC1=CC2C(=CC1=O)Oc1cc(O)c(CN(CC(=O)O)CC(=O)O)cc1C21OC(=O)c2ccccc21 (stereo not drawn)
  StopGo reporter: -1%
CCn1c(=O)n(C2=C(CO)CN(CC3CCCCCCC3)CC2)c2ccccc21
  StopGo reporter: -15%
COc1ccc2c(c1)CCNC2Cc1ccc(OC)c(O)c1 (stereo not drawn)
  StopGo reporter: 22%
COc1ccc(OC)c(-c2cc(Cl)c3c(c2)CC(CNC(=O)[C@@H]2CCCN2C(C)=O)O3)c1 (stereo partly drawn)
  StopGo reporter: -3%
CC(=O)Nc1ccccc1-c1nc(CNC(=O)c2ccc(Cl)cc2)c(C)o1
  StopGo reporter: 32%[activator]
Cn1nccc1C(=O)NCC1CCC2(CCN(Cc3cccc4ncccc34)CC2)O1 (stereo not drawn)
  StopGo reporter: -6%
CC(C)(CO)NC(=O)c1cnn(-c2ncc3c(n2)-c2ccccc2CC3)c1C1CC1
  StopGo reporter: 41%[activator]
COc1cc(-c2cc(C)c3cccc(OC)c3n2)cc2c1OCCN(C(=O)CCn1ccc(C)n1)C2
  StopGo reporter: -21%
O=C(O)c1ccc(-c2noc(-c3cccc(F)c3)n2)cc1
  StopGo reporter: 12%
OC1(c2ccc3c(c2)CN(Cc2ccco2)CCO3)CCN(c2ccccc2F)CC1
  StopGo reporter: -14%

Cc1ncc2c(c1CNC(=O)c1ccc3c(c1)OCO3)CCN(C(=O)c1cc3ccccc3n1C)C2
  StopGo reporter: -1%
Cc1oc(-c2ccccc2NC(=O)C2CCC2)nc1CNC(=O)c1ccc(C#CC(C)(C)O)cc1
  StopGo reporter: 2%
CCC(Sc1ccccc1)C(=O)OC1CC2CCC(C1)N2C (stereo not drawn)
  StopGo reporter: -4%
CCC1C(=O)NCCN1Cc1ccc2c(c1)CN(Cc1cccc(OC)c1OC)CCO2 (stereo not drawn)
  StopGo reporter: 3%
COc1cc(-c2cnc3ccccc3c2)cc2c1OCCN(S(=O)(=O)C[C@]13CC[C@H](CC1=O)C3(C)C)C2
  StopGo reporter: -1%
O=C(Cc1nc2ccccc2[nH]1)N1CCC(n2c(C3CCC3)nc3cccnc32)CC1
  StopGo reporter: 32%[activator]
CC1(C)c2[nH]c3ccccc3c2C[C@@H]2C(=O)N(Cc3ccccc3F)C(=O)N21
  StopGo reporter: ?
CCN1CCCC1CNC(=O)c1cnn(-c2nccc(-c3cc4ccccc4o3)n2)c1C1CC1 (stereo not drawn)
  StopGo reporter: -11%
Cc1ccc(C(=O)NCCc2nnc3n2CCN(Cc2ccc4ccccc4c2)CC3)c(C)c1
  StopGo reporter: -12%
COc1cccc(CNC(=O)c2c(OC)cc(=O)n3c2CCN(C(=O)c2ccccc2Cl)CC3)c1
  StopGo reporter: -8%

# Given with bars between the fields: part of the list above.
molecule | StopGo reporter
Cc1ccc(C(=O)NCCc2nnc3n2CCN(Cc2ccc4ccccc4c2)CC3)c(C)c1 | -12%
O=C(Cc1nc2ccccc2[nH]1)N1CCC(n2c(C3CCC3)nc3cccnc32)CC1 | 32%[activator]
COc1ccc(OC)c(-c2cc(Cl)c3c(c2)CC(CNC(=O)[C@@H]2CCCN2C(C)=O)O3)c1 (stereo partly drawn) | -3%
Cc1oc(-c2ccccc2NC(=O)C2CCC2)nc1CNC(=O)c1ccc(C#CC(C)(C)O)cc1 | 2%
O=C(O)c1ccc(-c2noc(-c3cccc(F)c3)n2)cc1 | 12%
CC(=O)Nc1ccccc1-c1nc(CNC(=O)c2ccc(Cl)cc2)c(C)o1 | 32%[activator]
Cc1ncc2c(c1CNC(=O)c1ccc3c(c1)OCO3)CCN(C(=O)c1cc3ccccc3n1C)C2 | -1%

# Following part
COc1cc(=O)n2c(c1C(=O)N(C)C(C)c1ccco1)CCN(C(=O)c1ccc(C(C)=O)cc1)CC2 (stereo not drawn)
  StopGo reporter: -9%
COc1cc(CNCc2cc3ccc(F)cc3nc2N2CCOCC2)cc(OC)c1OC
  StopGo reporter: 0%
COc1ccccc1N1CCN(CCn2c(=O)c3c(c4ccccc4n3C)n(C)c2=O)CC1
  StopGo reporter: -11%&-2%
CCC(O)CNC(=O)c1cnn(-c2ncc3c(n2)-c2ccccc2CCC3)c1C1CC1 (stereo not drawn)
  StopGo reporter: 38%[activator]
C[C@]12CCC3C(CC[C@H]4C[C@H](O)CC[C@]34C)[C@@H]1CC[C@@H]2C(=O)CO (stereo partly drawn)
  StopGo reporter: -28%
Nn1cc(Br)c(=O)[nH]c1=O
  StopGo reporter: 11%
COc1ccccc1-c1ccc(C(=O)NCCN2CCOCC2)c(N2CCN(c3ccccc3F)CC2)n1
  StopGo reporter: 2%
COC(=O)[C@@H]1CCCN1C(=O)c1c(OC)cc(=O)n2c1CCN(Cc1ccc3c(c1)CCO3)CC2
  StopGo reporter: -5%
S=C(NCCCc1cnc[nH]1)NCCCN(Cc1ccc(Cl)cc1)c1ccc(Br)cn1
  StopGo reporter: -20%
COc1cc(=O)n2c(c1C(=O)NCc1ccc3c(c1)OCO3)CCN(C(=O)c1ccccc1F)CC2
  StopGo reporter: -7%

COc1cccc(CNC(=O)c2c(OC)cc(=O)n3c2CCN(C(=O)C2CC24CCCC4)CC3)c1 (stereo not drawn)
  StopGo reporter: -11%
Cc1cnc(C)c(-c2cc(F)c3c(c2)CC(CNC(=O)c2cccc(Cn4cccn4)c2)O3)n1 (stereo not drawn)
  StopGo reporter: -16%
CCS(=O)(=O)Nc1cc(C(=O)N[C@H]2CCCCNC2=O)c2c(c1)nc(-c1ccccc1)n2C
  StopGo reporter: -18%
COC(=O)C1CCCCN1Cc1nc(N2CCCN(C(C)=O)CC2)c2ccccc2n1 (stereo not drawn)
  StopGo reporter: -9%
CC(C)(C)n1nc(Cc2cccc3ccccc23)c2c(N)ncnc21
  StopGo reporter: -8%
Cc1oc(-c2ccccc2NC(=O)c2ccsc2)nc1CN(C)Cc1ccc2c(c1)CCCN2C
  StopGo reporter: 3%
COc1ccc(C(=O)N2CCCC(c3nc(SCc4ccccn4)ncc3C)C2)cc1F (stereo not drawn)
  StopGo reporter: ?
COc1cc(=O)n2c(c1C(=O)NCc1ccco1)CCN(Cc1cccc(Cl)c1)CC2
  StopGo reporter: -15%
CCc1noc(C)c1C(=O)N1CCOc2ccc(CN3CCN(c4ccccn4)CC3)cc2C1
  StopGo reporter: -10%
COCCN1CCN(C(=O)c2sc3ncnc(NCC4CCCO4)c3c2C)CC1 (stereo not drawn)
  StopGo reporter: 2%

CC1CCN(CCCC(=O)c2ccc(F)cc2)CC1
  StopGo reporter: -18%
Cc1cnc(-n2ncc(C(=O)NCC(C)(C)N3CCOCC3)c2C)nc1-c1cccs1
  StopGo reporter: -2%
Cc1cc(C)cc(C(=O)NCc2nc(-c3cccc(NC(=O)c4ccccn4)c3)oc2C)c1
  StopGo reporter: 27%
CCCS(=O)(=O)NCc1c(C)ncc2c1CCN(C(=O)c1cccc(-c3ccccc3F)c1)C2
  StopGo reporter: 7%
COCCC1CCCCN1Cc1nc(N2CCCC2)c2cc(OC)c(OC)cc2n1 (stereo not drawn)
  StopGo reporter: -2%
Cc1c(C(=O)NCCC2CCCN2C)cnn1-c1nccc(-c2ccccc2F)n1 (stereo not drawn)
  StopGo reporter: -14%
COc1ccccc1-c1ccnc(-n2ncc(C(=O)NC(C)(C)CO)c2C2CC2)n1
  StopGo reporter: 26%
O=C(NCCc1nnc2n1CCN(CC1CC=CCC1)CC2)c1ccc(F)cc1 (stereo not drawn)
  StopGo reporter: -12%
CCC(N)(C(=O)O)c1ccc(C(=O)O)cc1 (stereo not drawn)
  StopGo reporter: -4%
Cn1c(C2CCC2)nc2cc(C(=O)N3CCOc4ccccc4C3)cc(NC(=O)C3CCCO3)c21 (stereo not drawn)
  StopGo reporter: -7%

# Reprinted from the results shown for reference:
CCn1c(=O)n(C2=C(CO)CN(CC3CCCCCCC3)CC2)c2ccccc21
  StopGo reporter: -15%
COc1ccc2c(c1)CCNC2Cc1ccc(OC)c(O)c1 (stereo not drawn)
  StopGo reporter: 22%

# (next part)
O=C1CCCC2=C1C1(CCCC1)N=C(Nc1nc3cc(-c4ccccc4)ccc3o1)N2
  StopGo reporter: ?
COC(=O)c1ccccc1-c1cc(C)cc2c1OC(CNC(=O)C1CCOC1)C2 (stereo not drawn)
  StopGo reporter: 5%
COCC(=O)Nc1cc(C(=O)N2CCC(c3ccccc3)CC2)cc2nc(-c3ccccc3)n(C)c12
  StopGo reporter: 22%
COc1ccccc1CNC(=O)c1cnn(-c2nccc(-c3cccs3)n2)c1C
  StopGo reporter: 49%[activator]
COc1cccc(CNC(=O)c2c(OC)cc(=O)n3c2CCN(C(=O)C2=C(C)OCCO2)CC3)c1
  StopGo reporter: 31%[activator]
CCCCN(CC)CCOc1cccc2ccccc12
  StopGo reporter: 40µM*
COc1cc(OC)c(OC)cc1CN1CCOc2ccc(CN3C[C@@H](C)O[C@@H](C)C3)cc2C1
  StopGo reporter: -19%
Oc1cc(-c2nc3ccccc3s2)cc2c1OCCN(Cc1cccn1-c1nccs1)C2
  StopGo reporter: 23%
Cc1cnc(-n2ncc(C(=O)NCC3CCCN(C)C3)c2C)nc1-c1cccs1 (stereo not drawn)
  StopGo reporter: -4%
Cc1c(C(=O)NC2CCCCC2)sc2ncnc(NCCN(C)C)c12
  StopGo reporter: -19%

COc1ccccc1C1CN(Cc2cccc(O)c2)Cc2ccccc2O1 (stereo not drawn)
  StopGo reporter: ?
Cc1cnc(-n2ncc(C(=O)N3CCN(C(C)C)CC3)c2-c2ccco2)nc1-c1ccc(F)cc1
  StopGo reporter: -16%
CN(C(=O)c1cnn(-c2ncc3c(n2)-c2ccccc2CCC3)c1C1CC1)C1CCOC1 (stereo not drawn)
  StopGo reporter: 27%
Cc1ccc(CN2CCc3nnc(C(NS(C)(=O)=O)C(C)C)n3CC2)cc1C (stereo not drawn)
  StopGo reporter: -18%
CC(=O)c1ccc(F)c(-c2cc(C)cc3c2OC(CNC(=O)C(C)n2nc(C)cc2C)C3)c1 (stereo not drawn)
  StopGo reporter: -16%
COc1cc(=O)n2c(c1C(=O)N(C)Cc1nonc1C)CCN(Cc1cccc(Cl)c1)CC2
  StopGo reporter: -10%
COc1ccccc1CC(=O)NCC1Cc2cc(F)cc(-c3cncnc3)c2O1 (stereo not drawn)
  StopGo reporter: -15%
CCc1nc2cc(C(=O)NCC3CCS(=O)(=O)C3)cc(NC(=O)c3ccccc3OC)c2n1C (stereo not drawn)
  StopGo reporter: -10%
COc1cccc(-c2ccnc(-n3ncc(C(=O)NCc4cccnc4)c3C3CC3)n2)c1
  StopGo reporter: -24%
CC(C)Cc1cc(C(=O)NCC2Cc3cc(F)cc(-c4ccccn4)c3O2)no1 (stereo not drawn)
  StopGo reporter: 6%

Cc1cnc(C(=O)NCc2c(C)ncc3c2CCN(C(=O)/C=C/c2cccs2)C3)cn1
  StopGo reporter: -8%
CCOC(=O)C1CCCN(C(=O)c2cnn(-c3ncc4c(n3)-c3ccccc3CC4)c2C)C1 (stereo not drawn)
  StopGo reporter: 16%
FC(F)(F)c1cnc(-c2cc3c(c(OCC4CCCO4)c2)OCCN(Cc2cccn2-c2nccs2)C3)c(Cl)c1 (stereo not drawn)
  StopGo reporter: -10%
N[C@H](C(=O)O)[C@H]1C[C@H]1C(=O)O
  StopGo reporter: -9%
O=C(NCCc1nnc2n1CCN(Cc1cc3ccccc3o1)CC2)c1ccoc1
  StopGo reporter: -28%
COc1cc(=O)n2c(c1C(=O)NCc1ccc3c(c1)OCO3)CCN(C(=O)c1ccc(C)cc1)CC2
  StopGo reporter: 10%
CCOC(=O)[C@H](CCc1ccccc1)N[C@@H](C)C(=O)N1Cc2cc(OC)c(OC)cc2C[C@H]1C(=O)O
  StopGo reporter: -16%
Cc1ccccc1C1(CC(=O)N2CC3(C)CC2CC(C)(C)C3)CC(=O)N(Cc2cccnc2)C1=O (stereo not drawn)
  StopGo reporter: 12%
Cc1ncc2c(c1CNC(=O)c1ccc3c(c1)OCO3)CCN(C(=O)C1Cc3ccccc3O1)C2 (stereo not drawn)
  StopGo reporter: -7%
COc1ccc(CN2C[C@H](Sc3nc4ccccc4[nH]3)C[C@H]2C(=O)N(C)C)c2ccccc12
  StopGo reporter: 1%

COc1ccccc1CNc1ncnc2sc(C(=O)N3CCN(C)CC3)c(C)c12
  StopGo reporter: 3%
CCC1(C2CCN(Cc3ccccc3Cl)CC2)NC(=O)N(CC2COc3ccccc3O2)C1=O (stereo not drawn)
  StopGo reporter: -17%
Cc1ccccc1-c1ccc(CN2CCc3nnc(C(NS(C)(=O)=O)C(C)C)n3CC2)cc1 (stereo not drawn)
  StopGo reporter: -15%
CC(C)c1c(C(=O)NCc2cccnc2)cnn1-c1nccc(-c2ccccc2F)n1
  StopGo reporter: -28%
COC(=O)[C@@H]1C[C@@H](NC(=O)c2cnsn2)CN1Cc1ccc(Cl)cc1
  StopGo reporter: 3%
Cc1ccc(CNc2nc(CN3CCCCC3c3cccnc3)nc3ccccc23)o1 (stereo not drawn)
  StopGo reporter: -15%
CCOC(=O)N1CCN(Cc2ccc3c(c2)CN(C(=O)c2cccc(-n4cccn4)c2)CCO3)CC1
  StopGo reporter: -23%
Cc1cnc(-n2ncc(C(=O)N(C)CCc3ccccn3)c2-c2cccs2)nc1-c1ccc(F)cc1
  StopGo reporter: -15%
Cc1ccnn1CC(=O)N1CCOc2c(cc(-c3ncc(C(F)(F)F)cc3Cl)cc2OCC2CCCO2)C1 (stereo not drawn)
  StopGo reporter: 6%
Cc1cnc(SCC2CCCO2)nc1C1CCCN(Cc2nc(-c3ccccc3)cs2)C1 (stereo not drawn)
  StopGo reporter: -16%

O=C(NCC1(N2CCCCC2)CCCCC1)c1ccc(-n2cc(NC(=O)c3cccnc3)cn2)cc1
  StopGo reporter: -10%
CC1(c2ccccc2)OC(C(=O)O)=CC1=O (stereo not drawn)
  StopGo reporter: -11%
COc1cc(-c2cc(C)c3c(OC)ccc(OC)c3n2)cc2c1OCCN(C(=O)CCn1ccc(C)n1)C2
  StopGo reporter: -13%
NC(=O)[C@@H]1CCCN1C(=O)CC1(c2cccc(F)c2)CC(=O)N(C2CCCC2)C1=O (stereo partly drawn)
  StopGo reporter: -14%
